High-throughput results: PubChem BioAssay, National Center for Advancing Translational Sciences (NCATS)
D2 agonist: activates the human D2 dopamine receptor | P14416 | DiscoveRx PathHunter D2 beta-arrestin, luminescence, 90 min; 100% = 57 uM dopamine signal | activation, % (concentration not given with the values) | 0.084% of 360,000 active; in the data active = activation above about 40%; inconclusive = about 15% to 40%; inactive = below about 15%; also: compound concentration not given in the record; the text of the record calls up to 30% inactive
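DiscoveRx PathHunter D2 beta-arrestin cells (2,100/well) attached overnight, then compound-stimulated 90 min at 37 C in HBSS/10 mM HEPES/0.1% Tween-20 buffer; beta-galactosidase complementation read by luminescence after 1 h at ambient temperature. Dopamine 57 uM final (EC100) as control.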
PINK1 expr mod: modulators of PINK1 expression. PINK1 immunofluorescence, high-content cytometry, 24 h. Potency, µM (highest dose often 76.6 µM), for inactives: at the top dose activation (PINK1 increase), usual class: activators. 0.2% of 410,000 active; active = well fitted activation curve with a large enough effect; inconclusive = small, poorly fitted or top-dose-only effect; inactive = flat fitted curve, though single readings scatter; cell line not stated here;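 also: potency is read from the fitted curve at half-maximal effect; % of control where 0% means no effect; nearly all actives have a fitted effect of over 65% in size; a mitochondrial uncoupler was the plate control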
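Measures PINK1 amount and localization on or inside mitochondria by immunofluorescence. Stable cells get compounds at 5 concentrations for 24 hours before fixation and staining; CCCP controls included.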
Six1-Eya2 inh: blocks human Six1 binding to Eya2; 0.56% of 360,000 active; activity change, % (no concentration beside the values); AID 651725; AlphaScreen GST-Six1/His-Eya2 binding, biochemical; active compounds read low; control for the full effect not named in the record; Q15475+O00167; in the data active = activity change below about -65%; inconclusive = about -30% to -65%; inactive = above about -30%; also: % is scaled to controls: 0 for no effect and ±100 for the full control effect
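Six1/Eya2 binding was read as AlphaScreen signal after compounds were pinned into GST-Six1 plus His-tagged Eya2 (5X stock 250/500 nM) in pH 8.0 Tris/NaCl/TCEP buffer, beads added, then incubated 1 h, 37 C, dark.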
D2 potentiator: human D2 receptor positive allosteric modulation; 0.23% of 360,000 active; potentiation, % (concentration not given with the values); P14416; DiscoveRx D2 beta-arrestin cells, luminescence, 90 min; 100% = 57 uM dopamine signal; active = potentiation of 50% or more; inconclusive = 30% to 50%; inactive = 30% or less;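 also: compound concentration not given in the record; tested on top of an EC20 dose of dopamine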
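PathHunter D2 cells, attached overnight at 37 deg C, received compound in DMSO plus dopamine at EC20 (50 nM final) for 90 min at 37 deg C. Beta-arrestin recruitment was read as luminescence after 1 h with detection reagent at ambient temperature.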
CtBP-E1A inh: blocks the CtBP interaction with E1A; AlphaScreen GST-E1A/His-CtBP binding, 1536-well; active compounds read low; control for the full effect not named in the record; activity change, % (concentration not given with the values); 0.49% of 340,000 active; in the data active means activity change below about -65%; inconclusive means about -30% to -65%; inactive means above about -30%; also: % is scaled to controls: 0 for no effect and ±100 for the full control effect
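Steps: dispense buffer (Tris pH 8.0, NaCl 300 mM, TCEP 1 mM, BSA, Tween 20); add 5X protein mix (GST-E1A, His-CtBP, 125 nM each); pin 23 nL compound; 2 h at 37 °C, dark; add 5X beads (50 ug/mL); 1 h; read.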
TRPV1 PAM: potentiators of human vanilloid receptor 1 (TRPV1) | Q8NER1 | TRPV1-expressing cells, Fluo-8 calcium influx, capsaicin EC20 potentiation; host cell line not named in the record; control for the full effect not named in the record | potentiation, % at 8.33 µM | 0.02% of 320,000 active | AID 540277; active means potentiation above 80%; inconclusive means 30% to 80%; inactive means below 30%; also: 0% is about no effect
Target sequence (Q8NER1 whole entry, looked up): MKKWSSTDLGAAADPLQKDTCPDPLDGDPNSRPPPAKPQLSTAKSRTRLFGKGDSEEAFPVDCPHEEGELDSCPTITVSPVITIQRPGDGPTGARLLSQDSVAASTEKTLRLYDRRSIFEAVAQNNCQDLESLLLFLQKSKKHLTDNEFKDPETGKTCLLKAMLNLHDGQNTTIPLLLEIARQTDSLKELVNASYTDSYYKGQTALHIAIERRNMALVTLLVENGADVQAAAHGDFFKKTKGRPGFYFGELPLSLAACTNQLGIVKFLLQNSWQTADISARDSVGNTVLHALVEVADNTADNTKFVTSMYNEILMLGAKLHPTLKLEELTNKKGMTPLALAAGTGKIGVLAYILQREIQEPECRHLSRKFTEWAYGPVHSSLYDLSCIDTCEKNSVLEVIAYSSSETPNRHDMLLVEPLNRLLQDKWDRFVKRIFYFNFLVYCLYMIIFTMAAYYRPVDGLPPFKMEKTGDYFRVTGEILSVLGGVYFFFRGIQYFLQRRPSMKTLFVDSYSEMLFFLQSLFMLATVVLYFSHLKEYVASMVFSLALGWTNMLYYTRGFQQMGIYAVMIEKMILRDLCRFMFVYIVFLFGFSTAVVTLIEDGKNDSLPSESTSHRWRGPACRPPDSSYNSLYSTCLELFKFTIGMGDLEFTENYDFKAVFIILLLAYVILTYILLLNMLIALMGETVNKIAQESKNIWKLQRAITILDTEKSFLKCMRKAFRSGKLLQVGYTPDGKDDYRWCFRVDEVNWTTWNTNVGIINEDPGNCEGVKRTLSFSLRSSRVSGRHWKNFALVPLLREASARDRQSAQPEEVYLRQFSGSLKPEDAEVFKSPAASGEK
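TRPV1-expressing cells were cultured overnight at 35.5C and loaded with Fluo-8 calcium dye for 40 to 90 min at room temperature. After a 10 s baseline, compound was added and calcium influx was read kinetically for 3 min (ex 480/em 520 nm).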
Sfp PPTase inh: Sfp phosphopantetheinyl transferase inhibition. Biochemical Sfp PPTase activity, qHTS. Potency, µM, without a hit: max response, negative = inhibition, usual class: inhibitors. 3.5% of 310,000 active; active = well fitted inhibition curve with a large enough effect; inconclusive = small, poorly fitted or top-dose-only effect, or another doubt; inactive = no such curve, though single readings can be large or run the other way;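 also: the enzyme is Sfp with the accession as filed and its product quenches rhodamine fluorescence; potency is read from the fitted curve at half-maximal effect; 0% = enzyme reaction without inhibitor and -100% = no enzyme wells; top concentration of the series not given in the record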
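Fluorescence-quenching assay with 15 nM Sfp, 5 uM rhodamine-CoA and 12.5 uM BHQ-2-labelled ybbR peptide in pH 7.6 Hepes/MgCl2 buffer. Enzyme was pre-incubated with compound for 15 min at room temperature. Rate was taken from the 30-min fluorescence change (525/598 nm).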
Numbers without * were called inactive; ? = inconclusive; nt = not tested or not shown; & = joins results of further samples; [ ] = remark or other dose.

molecule,D2 agonist,PINK1 expr mod,Six1-Eya2 inh,D2 potentiator,CtBP-E1A inh,TRPV1 PAM,Sfp PPTase inh
COCOCCn1cc(CN2CCS(=O)(=O)N(Cc3ccc(-c4ccc(Cl)cc4)cc3)C(C(C)C)C2=O)nn1 (centres undefined),-5.0,2.1%,-1,-3,1,nt,nt
Cc1cc(OCCSc2nnc(-c3cccs3)n2C)ccc1Cl,-4.8,-0.3%,13,-1,25,13,-11%
COc1ccc(OC)c(N2C(=O)CC(Cc3ccc(C)cc3)C2=O)c1 (centres undefined),0.3,-2.3%,8,3,1,-1,15%
c1coc(CNc2ncnc3[nH]ncc23)c1,-3.0,0.3%&1.6%,-10,-1,0,-6,14%
COc1ccccc1NC(=O)CSc1nnc(NC(=O)C2CC2)s1,-0.8,0.5%,-2,-2,1,3,10%
COCCc1nc2ccc(C(=O)N(C)Cc3cccc(-n4nc(C)cc4C)c3)cc2o1,-2.9,2.0%,-1,-12,-3,1,17%
O=C1[C@@H](Oc2ccccc2)[C@@H](c2cnc3ccccc3c2)N1c1ccccc1,1.3,1.6%,-11,nt,-8,nt,nt
C[n+]1cccc(/C=N/NC(=O)CC23CC4CC(CC(C4)C2)C3)c1,-2.2,-0.1%,-8,-4,-7,-8,-7%
CCN1C(=O)/C(=C\N(C)C)NC1=S,2.4,4.6%,0,-4,3,-5,4%
CN1OC(COC(=O)c2ccc(Cl)cc2Cl)CC1c1ccccc1 (centres undefined),-2.2,0.7%,21,-18,15,3,0%
N#C/C(=C\c1c(Oc2ccccc2Cl)nc2ccccn2c1=O)C(=O)NC1CCS(=O)(=O)C1 (centres undefined),4.0,1.3%,5,-2,-3,2,4%
COc1cc(C)ccc1S(=O)(=O)NC(=O)C1(C)CCN1C(=O)C1(c2ccc(Cl)cc2)CCC1 (centres undefined),3.8,0.5%,36,0,-2,nt,nt

(list continues)
molecule,D2 agonist,PINK1 expr mod,Six1-Eya2 inh,D2 potentiator,CtBP-E1A inh,TRPV1 PAM,Sfp PPTase inh
O=C(/C=C/c1ccccc1[N+](=O)[O-])NCc1cccnc1,-2.5,-1.5%,5,-39,13,-15,19%
CCOC(=O)C(C)Sc1nc2c(cnn2-c2ccc(F)cc2)c(=O)[nH]1 (centres undefined),0.3,11%,3,5,13,12,8%
COc1ccc(C)cc1NC(=O)CCN1CCN(c2ccccc2F)CC1,9.0,-0.1%,-10,18,1,0,5%
COc1ccc2c(c1)C(C)(Cc1ccc(C(=O)c3ccccc3)cc1)C(=O)N2 (centres undefined),8.7,2.3%,-19,4,-9,nt,nt
COC(=O)CNC(=O)CCCCC(=O)NCC(=O)OC,-2.4,10.0%[38.3 µM],25,-6,46,-5,3%
O=C(CSc1nnc(-c2ccc(C(F)(F)F)cn2)s1)c1ccc(Cl)cc1,-1.5,0.0%,3,0,-9,7,11%
Cc1cc2c(cc1C)-c1nnnn1C(C)(C)C2,-2.8,4.2%[38.3 µM],-2,-12,10,?,6%
Cc1c(CC(=O)NCCC(=O)O)c(=O)oc2cc3occ(-c4ccccc4)c3cc12,1.2,3.6%,?,10,?,2,9%
CN(Cc1ccccc1)c1nc2c(c(=O)[nH]c(=O)n2C)n1Cc1ccccc1,0.4,4.3%[38.3 µM],-1,-11,-1,3,16%
CCOc1ccc2c(O)csc2c1,-1.4,0.7%,-5,8,-4,19,50µM*
CCOc1ccc(S(=O)(=O)NCc2cccnc2)cc1C,-3.9,1.0%,-1,-2,1,0,5%
Cc1ccc(S(=O)(=O)N(C)CC(=O)O/N=C(\N)c2ccc([N+](=O)[O-])cc2)cc1,3.5,47%[38.3 µM],-22,3,-17,4,-5%

New compounds follow
molecule,D2 agonist,PINK1 expr mod,Six1-Eya2 inh,D2 potentiator,CtBP-E1A inh,TRPV1 PAM,Sfp PPTase inh
NC(=O)CC(NC(=O)Cc1ccc(Br)cc1)c1ccc(NC2CCCCCC2)c([N+](=O)[O-])c1 (centres undefined),-3.2,0.3%,1,-5,3,7,-14%
COc1cc(-c2coc3c(C(=O)NCc4ccncc4)cccc23)ccc1O,3.2,0.4%,?,-3,?,nt,nt
CCCCN(CC)CCCNC(=O)c1cn(C)c2ccc(S(=O)(=O)N(C)C3CCCCC3)cc2c1=O,-4.7,0.7%&1.8%,3,-8,nt,28,9%
Cc1cc(C)nc(N2CCN(C(=O)c3ccc(S(=O)(=O)N4CCCCCC4)cc3)CC2)n1,-3.4,4.0%,0,-4,3,-8,6%
O=C(CSc1nc2[nH]ncc2c(=O)[nH]1)Nc1cccc([N+](=O)[O-])c1,-6.5,5.1%,-20,2,-12,-9,nt
Cc1cccc(NC(=O)COc2cccc3c2CCN(C)C3=O)c1,-3.8,-1.0%,0,-30,23,4,11%
COc1ccc(Cl)cc1C(=O)NC1CC(C)(C)NC(C)(C)C1,-1.9,2.3%,3,-17,3,nt,nt
CN(C(=O)c1ccccc1Cl)c1ccccc1,-0.8,6.9%[38.3 µM],2,-3,7,5,10%
O=C1CN(C(=O)COC(=O)c2cc(S(=O)(=O)N3CCOCC3)ccc2Cl)c2ccccc2N1,-0.4,-2.1%,17,2,0,25,20%
O=C(Cc1ccc(Cl)cc1Cl)OCC(=O)c1ccc[nH]1,-4.0,2.5%,-3,-7,12,20,15%
CC(C)c1ccc(S(=O)(=O)N2CCN(CC(=O)Nc3ccc(Cl)cc3F)CC2)cc1,3.4,5.8%,-11,1,-4,-9,nt
CC(=O)C1=C(O)C(=O)N(CCCn2ccnc2)C1c1ccc(Br)cc1 (centres undefined),-4.0,-0.4%,3,-1,3,-3,11%

Going on with the list:
molecule,D2 agonist,PINK1 expr mod,Six1-Eya2 inh,D2 potentiator,CtBP-E1A inh,TRPV1 PAM,Sfp PPTase inh
CCOC(=O)CCn1c(=O)c2c(nc(Br)n2Cc2ccccc2)n(C)c1=O,-3.2,-0.7%,13,-11,-2,0,?
O=C(c1ccccc1)N(Nc1ccccc1)c1ccccc1,5.1,9.9%,-1,-2,1,5,4%
CCCCNC(=O)CCN1N=C(c2ccccc2)CCC1=O,-1.0,0.7%,0,-1,nt,29,18%
COc1ccc(S(=O)(=O)c2ccc(OC)c(OC)c2)cc1OC,1.9,-2.8%,6,-3,3,-2,7%
O=c1cc(-c2ccccc2)[nH]c2ccc(F)cc12,0.2,6.6%,2,-14,7,?,28%&3%
CCc1ccc(-c2nc3ccc(Br)cc3c(C(=O)O)c2C)s1,-2.6,1.1%&-1.0%,-12,-2,nt,7,-13%
COc1cc(CN2CCN(Cc3ccccc3C(F)(F)F)CC2)cc(OC)c1OC,4.1,4.1%,-7,-19,0,7,-30%
O=C(NNC(=O)c1cccnc1)NC1CCCCC1,-6.7,4.6%,2,-5,nt,6,13%
COc1ccc(-c2nc3cc(C)c(Br)c(C)n3c2CC(C)(C)C)cc1OC,-8.3,16%,-12,-6,0,nt,nt
CCN1CC(CN(C)Cc2nc(-c3ccc(Cl)cc3)no2)CC1=O (centres undefined),-2.2,-0.1%,4,-14,nt,-21,0%
Cc1ccnc(NC(=O)c2ccc3c(c2)C(=O)N(CCC(C)C)C3=O)c1,-2.6,3.7%,-19,-10,-4,14,8%
CCOC(=O)CC1C(=O)NCCN1Cc1cccc(C(F)(F)F)c1 (centres undefined),-1.0,2.4%,-3,-2,2,-8,-15%

The listing continues:
molecule,D2 agonist,PINK1 expr mod,Six1-Eya2 inh,D2 potentiator,CtBP-E1A inh,TRPV1 PAM,Sfp PPTase inh
COc1cc(C)ccc1OCCCOc1cc(C)ccc1Cl,-2.3,20%,41,4,46,nt,nt
O=C(Cn1c(COc2ccc(Cl)cc2)nc2ccccc21)NCC(F)(F)F,2.9,1.6%,1,0,1,-9,4%
CC(=O)Nc1sc(C)c(C)c1C(=O)OCC(=O)Nc1cc(S(=O)(=O)N2CCCCC2)ccc1Cl,-0.4,3.4%,12,1,18,-1,-5%
Nc1c(C(=O)NCc2ccc(Cl)cc2)sc2nc3c(c(C(F)(F)F)c12)CCC3,-2.4,1.0%[38.3 µM],7,-2,-10,-13,-4%
COc1ccccc1NS(=O)(=O)c1cccc(NC(=O)c2[nH]c(C)c(C(C)=O)c2C)c1,-1.6,7.5%,-24,-20,nt,-2,-6%
COc1ccc(CNC(=O)C2CCN(C(=O)c3ccc(F)cc3)CC2)cc1OC,-1.2,-0.2%,5,1,0,-4,nt
CCN(CC)C(=O)Cn1cc(S(=O)(=O)CC(=O)NCc2ccc(F)cc2)c2ccccc21,-2.6,1.4%,-3,-7,0,-1,6%
CCCCCCC(O)(c1ccccc1)C(CN1CCOCC1)c1ccccc1 (centres undefined),-3.8,9.7%,9,-6,4,-18,-8%
Cn1c(NC(=O)c2ccc(Cl)cc2)c(-c2ccccn2)c(=O)c2ccccc21,-2.6,?,-2,-7,-4,-2,-8%
CCn1c(Cc2cccn2C)nnc1SCC(=O)c1ccc(C)cc1,-4.2,1.9%,-4,-9,-3,-20,-7%
COc1ccc2c(c1)c(=O)oc1cc3occ(C(C)(C)C)c3cc12,-1.7,9.5%,7,-10,2,8,9%
COCCNC(=O)C1(C)CCN(Cc2ccccc2C#N)C1 (centres undefined),-5.2,0.2%,-8,-10,-8,nt,nt

More structures:
molecule,D2 agonist,PINK1 expr mod,Six1-Eya2 inh,D2 potentiator,CtBP-E1A inh,TRPV1 PAM,Sfp PPTase inh
COc1ccc(-c2nc3c4ccccc4ccn3c2Cc2ccsc2)cc1OC,-4.0,-0.9%,-6,-5,-2,nt,nt
COc1ccccc1Nc1c([N+](=O)[O-])cc(C)cc1[N+](=O)[O-],3.3,0.3%,?,-3,nt,-1,4%
CCC[N+](CC#Cc1ccccc1)(CCC)CC(=O)OC,-3.6,1.8%,-13,-4,0,3,1%
COCCn1c(=O)[nH]c(=O)c2cc(C(=O)c3cc(Cl)ccc3O)cnc21,-2.4,-0.3%,?,0,?,2,-9%
Cc1ccc(CN(C)C(=O)COC(=O)CSc2ccc(C(N)=O)cc2[N+](=O)[O-])cc1,-0.1,1.6%,-8,-3,-2,11,nt
COc1ccc(CC(=O)Nc2cccc(/C(C)=N/NC(=O)c3cccc([N+](=O)[O-])c3)c2)cc1,1.0,0.1%,-7,-20,-6,2,-2%
CC(C)(C)NC(=O)NC(=O)COC(=O)Cc1c(Cl)cccc1Cl,-0.3,0.5%,0,5,0,?,17%
CC(=O)N1CCN(C(=S)NC(=O)c2ccc(F)cc2)CC1,-3.2,2.5%,18,-17,-4,nt,nt
